From PubChem BioAssay
Caspase-1 inhib: qHTS Assay for Allosteric/Competitive Inhibitors of Caspase-1 | P29466 | Caspase-1 enzyme, Ac-WEHD-AFC fluorogenic rate | Potency, µM (series often up to 57.5 µM), for the others: top-dose activity change, negative = inhibition, hits mostly inhibitors | 75,000 tested, 0.03% active;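 also: potency is read from the fitted curve at half-maximal effect; plate controls were vehicle for no effect and no substrate for full effect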
USP2a inh: qHTS Assay for Inhibitors of Ubiquitin-specific Protease USP2a; USP2a enzymatic assay, qHTS inhibition; 60,000 tested, 0.1% active; Potency, µM (titrated, usually from 38.3 µM), for inactives: top-dose activity change, negative = inhibition, actives largely listed as inhibitors; Ubiquitin carboxyl-terminal hydrolase 2 (Homo sapiens), O75604;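 also: potency is read from the fitted curve at half-maximal effect; nearly all actives have a fitted effect of over 60% in size; plate controls were DMSO for no effect and NEM full inhibition control for full effect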
Target sequence (O75604 whole entry, looked up): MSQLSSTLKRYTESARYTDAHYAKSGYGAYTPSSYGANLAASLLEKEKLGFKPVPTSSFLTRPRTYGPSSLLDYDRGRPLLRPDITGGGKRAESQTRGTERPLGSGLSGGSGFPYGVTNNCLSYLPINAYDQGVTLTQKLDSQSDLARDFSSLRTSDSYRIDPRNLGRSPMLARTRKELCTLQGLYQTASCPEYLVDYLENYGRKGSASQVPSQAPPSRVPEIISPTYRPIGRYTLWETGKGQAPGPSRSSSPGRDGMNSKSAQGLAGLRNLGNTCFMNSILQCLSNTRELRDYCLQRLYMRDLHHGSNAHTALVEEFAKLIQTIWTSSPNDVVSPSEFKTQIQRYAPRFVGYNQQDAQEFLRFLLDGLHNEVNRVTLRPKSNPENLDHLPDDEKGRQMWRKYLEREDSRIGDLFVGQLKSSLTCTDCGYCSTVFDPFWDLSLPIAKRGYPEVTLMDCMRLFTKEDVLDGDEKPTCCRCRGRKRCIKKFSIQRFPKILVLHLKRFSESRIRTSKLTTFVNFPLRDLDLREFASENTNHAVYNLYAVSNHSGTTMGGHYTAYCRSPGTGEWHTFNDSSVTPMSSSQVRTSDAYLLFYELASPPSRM
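Inhibition is measured in a cell-free coupled assay with 20 nM USP2 core, 20 nM Ub-PLA2 and 20 uM NBD C6-HPC, 2.5 h incubation. Activity normalized to NEM control.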
Texas Red fluor: qHTS Assay for Spectroscopic Profiling in Texas Red Spectral Region. Compound fluorescence, Texas Red channel, 547/618 nm; active compounds read high. max dye-equivalent concentration, M. 59,000 tested, 0.06% active; in the data active = max dye-equivalent concentration above about 10 nM; inconclusive = between about 1.1 nM and that limit
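Spectral interference profiling: each compound concentration's relative fluorescence, read with a 547 nm excitation and 618 nm emission filter pair, was normalized to a per-plate Texas Red standard curve.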
Tau fil binding: qHTS Assay for Tau Filament Binding; Potency, µM (top dose mostly 57.1 µM), without a hit: at the top dose activity change, negative = inhibition; 71,000 tested, 2% active; AID 596, 2007; recombinant tau filaments, thioflavin S fluorescence, 15 h; filaments grown with octadecylsulfate alongside compound;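 also: potency is read from the fitted curve at half-maximal effect; % is scaled to controls: 0 for no effect and ±100 for the full control effect; actives lower thioflavin S fluorescence by blocking filaments or displacing dye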
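Quantitative HTS: thioflavine S signal from ODS-induced tau filaments, excited at 450 nm, emission 510 nm. Conditions: 1 uM tau, 30 uM ODS, 15 h at 37 C, pH 7.4.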
HEK293 cAMP cs: qHTS Assay for Agonists of the Thyroid Stimulating Hormone Receptor: Activators of Intracellular cAMP Concentrations in Parental HEK 293; parental HEK293 CNG cAMP sensor, membrane potential fluorescence; Potency, µM (series often up to 57.1 µM), for inactives: at the highest dose activation, most hits filed as activators; 73,000 tested, 2.5% active; also: potency is read from the fitted curve at half-maximal effect; % of control where 0% means no effect; nearly all actives have a fitted effect of over 55% in size
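Counterscreen for endogenous-receptor signalling: CNG-channel HEK 293 cells report cAMP rise by membrane depolarization. After 60 min dye equilibration with 100 uM RO 20-1724, compounds incubated 30 min before bottom-read fluorescence at 590 nm.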
Luciferase inh: qHTS Assay for Inhibitors of Firefly Luciferase | AID 411, 2009 | 72,000 tested, 2.2% active | purified firefly luciferase, luminescence, 8 min | Luciferin 4-monooxygenase (Photinus pyralis), P08659 | Potency, µM (titrated, usually from 57.1 µM), without a hit: at the top dose activity change, negative = inhibition, most hits filed as inhibitors; also: potency is read from the fitted curve at half-maximal effect; % is scaled to controls: 0 for no effect and ±100 for the full control effect; nearly all actives have a fitted effect of over 40% in size
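Inhibition of light generation by firefly luciferase from ATP and luciferin was profiled with concentration-response curves per sample, ATP held at 10 uM within the enzyme's linear range. Plates were read by luminescence after an 8-minute ambient incubation.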
ERK AVP block: qHTS Assay for Inhibitors of the ERK Signaling Pathway using a Homogeneous Screening Assay; HEK293-V1b, vasopressin-stimulated pERK AlphaScreen; Potency, µM (series often up to 57.5 µM), for inactives: at the top dose activity, negative = inhibition, most hits filed as inhibitors; 72,000 tested, 0.99% active; AID 995, 2007; also: potency is read from the fitted curve at half-maximal effect; % is scaled to controls: 0 for no effect and ±100 for the full control effect; nearly all actives have a fitted effect of over 55% in size
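qHTS, compounds titrated on V1b-expressing HEK293 cells. Preincubation 30 min at 37C, vasopressin 25 nM for 5 min, lysis 10 min, bead incubation 5 hr at room temperature.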
Fluorescein autfl: qHTS Assay for Spectroscopic Profiling in Fluorescein Spectral Region. max fluorescein-equivalent concentration, M. 59,000 tested, 0.91% active. Compound autofluorescence, 480/540 nm, fluorescein-equivalent; active compounds read high; in the data active = max fluorescein-equivalent concentration above about 10 nM; inconclusive = between about 1.1 nM and that limit
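Autofluorescence profiling; 100 mM Tris, pH 8.0; incubation 15 min at RT; ex/em 480/540 nm; result as fluorescein-equivalent concentration.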
Rhodamine fluor: qHTS Assay for Spectroscopic Profiling in Rhodamine Spectral Region; max dye-equivalent concentration, M; Rhodamine-region fluorescence, 547/598 nm, Tris buffer; active compounds read high; 59,000 tested, 0.05% active; AID 594, 2007; in the data active = max dye-equivalent concentration above about 11 nM; inconclusive = between about 1.1 nM and that limit
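Intensities are converted to rhodamine-equivalent concentration using a six-point rhodamine standard on each plate. Compounds sit 15 min at room temperature in 100 mM Tris buffer, pH 8.0; read uses the 547/598 nm excitation/emission pair.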
Casp7 inh: qHTS Assay for Allosteric/Competitive Inhibitors of Caspase-7; P55210; 75,000 tested, 0.02% active; recombinant caspase-7, Ac-DEVD-AFC fluorescence rate; AID 889, 2007; Potency, µM (highest dose often 57.5 µM), without a hit: top-dose activity change, negative = inhibition, most hits filed as inhibitors; active = well fitted inhibition curve with a large enough effect in the main read-out, with a control signal flat, not every such curve was filed as active; inconclusive = small, poorly fitted or top-dose-only effect, or a change in a side signal; also: potency is read from the fitted curve at half-maximal effect; % of control where 0% means no effect
Target sequence (P55210 24-198 limits assumed): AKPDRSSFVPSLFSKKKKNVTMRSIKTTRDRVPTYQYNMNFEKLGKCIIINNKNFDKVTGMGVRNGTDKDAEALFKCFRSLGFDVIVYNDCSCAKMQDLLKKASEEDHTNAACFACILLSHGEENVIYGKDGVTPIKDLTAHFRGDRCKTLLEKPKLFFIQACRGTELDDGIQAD
Target sequence (P55210 207-303 limits assumed): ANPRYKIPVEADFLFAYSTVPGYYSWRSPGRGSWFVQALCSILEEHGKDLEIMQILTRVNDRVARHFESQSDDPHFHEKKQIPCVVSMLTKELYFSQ
* marks the source's active call; other numbers are inactive results; i = inactive; ? = inconclusive; nt = no result given; [ ] = another dose, or the depositor's remark. Unless noted, calls follow the shape of the dose curve; as a rule, active = well fitted curve in the direction sought with a large enough effect; inconclusive = small, poorly fitted or top-dose-only effect, or another doubt; inactive = no such curve, though single readings can be large; an effect the other way counts as inactive or inconclusive.

Every second line gives: Rhodamine fluor | Caspase-1 inhib | Texas Red fluor | Casp7 inh | Fluorescein autfl | ERK AVP block | Tau fil binding | USP2a inh | HEK293 cAMP cs | Luciferase inh
COc1cccc(Cn2c(=O)c(C)nc3cnc(OCc4ccccc4)nc32)c1
→ i | -6.6% | ? | -4.8% | i | 6.3% | 31.6µM* | -8.2% | 15.8µM* | 1.0%[11.4 µM]
COc1ccc(Cn2nnnc2C(C(C)C)N(Cc2ccco2)Cc2cccs2)cc1 (configuration not stated)
→ i | -3.5% | i | -0.3% | i | 11.9% | -2.7% | -1.2% | 28.9% | -1.0%
CCS(=O)(=O)n1nc(-c2ccco2)nc1SC
→ i | -1.6% | i | -3.5% | i | -9.3% | 5.6% | ? | 17.2% | 4.5%
CCOc1cc(S(=O)(=O)N2CCCCC2)ccc1Cl
→ i | -2.4% | i | -0.1% | i | -19.4% | -3.5% | -1.6% | ? | -1.1%
CC(C)COc1ccc(-c2nnc(-c3ccco3)o2)cc1
→ i | -4.9% | i | -4.1% | i | 12.8% | 27.0% | 1.0% | ? | 15.8µM*
O=C(CCCCCN1C(=O)c2ccccc2C1=O)NC1CCCC1
→ i | -2.4% | i | -0.8% | ? | 41.8%[activator] | -8.6% | 2.0% | 13.8% | -2.7%
Cn1c(NC(=O)c2cccs2)c(-c2cccs2)c(=O)c2ccccc21
→ i | -2.7% | i | -0.8% | i | -7.5% | -6.8% | 5.4% | 10.4% | -1.1%
CCCCSc1nnc(-c2ccc(C)cc2)o1
→ i | -3.3% | i | 0.6% | i | 14.9% | 6.6% | 0.7% | ? | 15.8µM*
CCCCCCCCCCCCC(=O)N1CCCC[C@H]1CNC(=O)[C@@H](N)CCCCN
→ nt | -3.7% | nt | -0.1% | nt | -0.3% | ? | nt | 2.9% | 1.5%
Cc1cc(Nc2cccc(C(F)(F)F)c2)n2nc(C)nc2n1
→ i | -1.5% | i | -0.5% | ? | -10.2% | 2.6% | -10.4% | 2.7% | 0.3%
CCOCCc1nnc(NC(=O)c2cccs2)s1
→ i | 1.3% | ? | 0.4% | i | -9.8% | 10.1% | -3.3% | -0.9% | -10.2%
COC(=O)c1nnn(CC(=O)Nc2cccc(Cl)c2)c1C(=O)OC
→ i | 1.3% | i | 0.5% | i | 18.8% | 1.6% | 10.3% | -0.5% | 0.5%
Cc1cccc2nc(=S)n(C(=O)c3ccco3)n12
→ i | -4.7% | i | 1.4% | ? | -5.7% | -8.8% | -6.8% | -1.9% | 2µM*
COc1ccc(CNc2ncnc3ccc(-c4ccccc4CN(C)C)cc23)c(OC)c1
→ i | -0.7% | i | 0.7% | ? | -1.8% | -17.0% | 32.8%[activator] | -31.5%[inhibitor] | -0.1%[2.29 µM]
N#Cc1cc2ccccc2nc1SCC(=O)Nc1ccc(S(=O)(=O)N2CCCC2)cc1
→ i | -1.4% | ? | 1.2% | i | 3.2% | 15.8µM* | 32.0%[activator] | ? | 6.1%
O=C(CSc1ccccn1)N1CCN(c2ccccc2)CC1
→ i | 0.0% | i | 0.0% | i | -17.5% | -4.3% | 0.5% | 16.9% | 0.1%
O=C(Nc1ccc(F)cc1F)c1noc2c1CCC2
→ i | 1.3% | i | -4.4% | i | 12.9% | -10.3% | 6.5% | 7.9% | -15.4%
Cc1ccc2c(c1)NC(=O)C(CC(=O)N(C)Cc1ccccc1)O2 (configuration not stated)
→ nt | 0.5% | nt | -5.0% | nt | -13.6% | -23.8% | nt | -0.2% | -4.6%
COc1ccc(S(=O)(=O)N(CCN2CCOCC2)Cc2cc(OC)ccc2OC)cc1
→ i | -1.6% | i | -1.7% | i | -5.0% | 9.7% | 9.6% | 9.7% | 0.2%
N#CC(=C1SC=CS1)c1nc(-c2ccccc2)cs1
→ i | -0.9% | ? | -5.0% | i | 3.2% | ? | 36.0%[activator] | 3.0% | -29.3%
NC(=O)C1CCN(Cc2nnnn2Cc2ccco2)CC1
→ i | -7.7% | i | -5.4% | ? | -5.9% | 18.4% | -7.9% | 11.1% | -0.5%
COc1ccc(N(Cc2cc3ccc(C)cc3[nH]c2=O)C(=O)c2ccco2)cc1
→ i | -2.3% | i | -10.5% | i | -2.8% | 19.8% | 24.0% | -0.8% | 3.9%
COC(=O)c1ccc(CSc2nnc3sc4ccccc4n23)o1
→ i | -1.6% | i | 0.7% | ? | 4.9% | -5.8% | 0.0% | ? | -1.2%
Cc1nc2c(C(=O)NCCC3=CCCCC3)c[nH]n2c(=O)c1Cl
→ i | -2.6% | ? | -5.9% | i | -1.4% | 6.3% | 10.5% | 18.2% | -1.1%
O=C(Cc1ccccc1)Nc1ccc(-c2nnc(-c3ccco3)o2)cc1
→ i | 2.4% | i | -1.7% | i | 19.2% | 458.5% | 21.0% | 7.0% | 0.6%
Cc1ccc(CCNC(=O)C2CCCN(c3nc4ccccc4o3)C2)cc1 (configuration not stated)
→ i | -1.6% | i | 0.8% | i | -7.3% | 5.3% | 8.6% | ? | 2.7%
COCC(=O)N1CCC2(CC1)CN(c1ccc(-c3ccccc3)cc1)C2
→ i | -2.8% | i | 0.6% | i | ? | ? | 151.4%[activator] | 14.3% | -5.5%[11.4 µM]
Cc1cc(NC(=O)CCCSc2nc(-c3ccco3)cc(C(F)(F)F)n2)no1
→ i | -2.2% | i | -7.5% | ? | -9.9% | 32.4% | -11.2% | ? | -0.5%
O=C(COc1ccccc1Cl)NC(=O)NC1CCCC1
→ i | -0.6% | i | -1.1% | ? | 17.4% | -10.4% | 14.7% | 15.5% | -9.9%
CCc1oc2ccccc2c1C(=O)CCN1CCCCC1
→ i | -7.6% | i | -6.6% | i | -23.6% | -1.6% | -5.0% | 29.0% | 4.6%
c1ccc(-c2nn3c(Cn4nnc5ccccc54)nnc3s2)nc1
→ i | 0.7% | i | -0.5% | ? | 2.0% | -24.2% | 30.7%[activator] | 8.4% | -0.3%
CNCc1cc2ccc(C)cc2[nH]c1=O
→ i | -0.7% | i | -1.7% | i | -4.7% | -8.1% | -15.2% | 3.2% | -0.2%
COc1ccc(S(=O)(=O)N2CCN(C(=O)NC3CCCCC3)CC2)cc1OC
→ i | -2.9% | ? | 1.0% | i | -7.0% | 10.3% | 3.5% | 2.1% | 1.0%
c1cncc(-c2nc(NCCN3CCOCC3)c3ccccc3n2)c1
→ i | -0.2% | i | 1.4% | ? | -24.8% | 10.8% | -7.9% | 0.3% | -2.0%[2.29 µM]
COc1ccc2[nH]cc(CCNc3ncncc3-c3cccc(NS(C)(=O)=O)c3)c2c1
→ i | -2.7% | ? | -3.9% | ? | -7.3% | -8.5% | 99.4%[activator] | -10.7% | 2.0%[2.29 µM]
Cc1ccccc1NC(=O)Nc1cccs1
→ nt | -5.1% | nt | -10.1% | nt | nt | nt | nt | -12.6% | nt
COc1ccccc1OC1=NS(=O)(=O)c2ccccc21
→ i | -0.3% | i | 0.4% | i | 6.0% | -9.3% | -10.8% | 9.6% | -0.7%
CCOC(=O)c1cn(CC)c2cc(N3CCCCC3)c(F)cc2c1=O
→ i | -0.6% | i | -0.4% | ? | 7.5% | 2.5% | 2.8% | 0.9% | 2.1%
COc1ccc(C(=O)NCCCn2ccnc2)cc1
→ i | -3.9% | i | 1.6% | i | -3.7% | -3.6% | nt | 1.26µM* | 3.5%
Cc1ccc(CNc2cc(-c3nn4c(C)nnc4s3)ccc2C)s1
→ i | ? | i | -22.5% | ? | ? | 131.7% | 3.6% | 11.7% | 3.4%
COC(=O)c1cc2oc(C)cc2n1CC(=O)Nc1ccc(C)c(C)c1
→ i | -1.7% | i | -3.5% | i | -4.1% | 8.6% | 43.6%[activator] | 20.0% | -2.2%
Clc1ccccc1-c1ccc(/C=N/n2cnnc2)o1
→ nt | -1.6% | nt | -0.7% | nt | ? | -3.3% | -21.9% | -2.5% | -10.1%

This is a subset; count on the stated rates, not on these rows.
